# High-throughput results: PubChem BioAssay, Broad Institute
# ID4 SMM = binders of human ID4 protein | hit rate 1.2% among 31,000 | calls only | P47928 | small molecule microarray, Flag-ID4 binding, fluorescence F/B;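 active = spot signal over background at p below 0.07 in all four prints; compounds were printed on slides so no solution concentration is given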;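 note: a binder raises fluorescence above local background on the spot; about 2 pmol printed per array spot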
# Target sequence (P47928 whole entry, looked up): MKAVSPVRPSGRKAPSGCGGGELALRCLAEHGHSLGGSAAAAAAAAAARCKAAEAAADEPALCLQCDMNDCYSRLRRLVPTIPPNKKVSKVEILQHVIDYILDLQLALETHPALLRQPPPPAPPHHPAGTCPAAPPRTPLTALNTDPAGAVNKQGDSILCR
# Calls only; i = inactive; + = active, no number.
SMILES,ID4 SMM
CC(=O)c1ccc(NC(=O)CSc2nnc(-c3cccs3)n2-c2ccccc2)cc1,i
COC(=O)c1ccccc1NC(=O)CSc1nnc(-c2ccc(Cl)cc2)o1,i
COC(=O)CN(c1ccc(C)c(Cl)c1)S(=O)(=O)c1ccccc1,i
O=C(O)COc1cccc(-c2nc3ccccc3s2)c1,i
C=CC[C@H]1Cc2ccccc2[C@H](CC=C)N1,i
C=CCNC(=O)[C@@H]1[C@H]2C(=O)O[C@H](c3ccccc3)[C@H](c3ccccc3)N2[C@H](c2ccc(O)cc2)[C@@]12C(=O)Nc1ccccc12,i
Cc1onc(-c2ccccc2Cl)c1C(=O)N(Cc1nc(-c2ccccc2)no1)C1CCCCC1,i
CC(=O)N(C)C[C@H]1Oc2ncc(C3=CCCC3)cc2C(=O)N([C@H](C)CO)C[C@@H]1C,i
Cc1ccc(CN(C)C[C@@H]2OCc3cn(nn3)CCCC(=O)N([C@H](C)CO)C[C@@H]2C)cc1,i
O=C(NCCCn1ccnc1)c1nn2c(C(F)(F)F)cc(-c3cccs3)nc2c1Br,i
COCC(=O)N(C)C[C@@H]1Oc2cc(-c3cccc(F)c3)ccc2S(=O)(=O)N([C@H](C)CO)C[C@@H]1C,i
O=C(Cn1cnc2scc(-c3ccc4ccccc4c3)c2c1=O)Nc1cccc(Cl)c1Cl,i
COCC(=O)N[C@H]1CC[C@@H](CC(=O)NCc2ccccc2OC)O[C@@H]1CO,i
COc1c(C)c(O)c(C)c(O)c1C(=O)CCc1ccccc1,i
NC(=O)CN1C(=O)C(O)(CC(=O)c2ccc(Cl)s2)c2ccccc21 (configuration not stated),i
CCn1c(SCC(=O)Nc2cccc(C(F)(F)F)c2)nnc1-c1c[nH]c2ccccc12,i
Cc1ccc(S(=O)(=O)c2c(C)nn(C(C)(C)C)c2OC(=O)c2ccccc2C(F)(F)F)cc1,i
C=CCNC(=O)[C@@H]1[C@H]2C(=O)O[C@H](c3ccccc3)[C@H](c3ccccc3)N2[C@H](c2ccc(OCCO)cc2)[C@@]12C(=O)Nc1ccc(C#CCNC(N)=O)cc12,i
CCn1c(SCC(=O)Nc2c(Cl)cc(Cl)cc2Cl)nnc1-c1ccc(OC)cc1,i
Cc1ccccc1-n1ccc(=O)[nH]c1=O,i

# Overlap with the part before: 6 entries, followed by the next part.
SMILES,ID4 SMM
NC(=O)CN1C(=O)C(O)(CC(=O)c2ccc(Cl)s2)c2ccccc21 (configuration not stated),i
CCn1c(SCC(=O)Nc2cccc(C(F)(F)F)c2)nnc1-c1c[nH]c2ccccc12,i
Cc1ccc(S(=O)(=O)c2c(C)nn(C(C)(C)C)c2OC(=O)c2ccccc2C(F)(F)F)cc1,i
C=CCNC(=O)[C@@H]1[C@H]2C(=O)O[C@H](c3ccccc3)[C@H](c3ccccc3)N2[C@H](c2ccc(OCCO)cc2)[C@@]12C(=O)Nc1ccc(C#CCNC(N)=O)cc12,i
CCn1c(SCC(=O)Nc2c(Cl)cc(Cl)cc2Cl)nnc1-c1ccc(OC)cc1,i
Cc1ccccc1-n1ccc(=O)[nH]c1=O,i
CCn1ncc(NC(=S)NCc2ccco2)c1C(N)=O,i
CCCC#Cc1cnc2c(c1)C(=O)N([C@@H](C)CO)C[C@H](C)[C@@H](CN(C)Cc1ccccc1)O2,i
COC(=O)COc1cccc(NC(=O)c2cccs2)c1,i
COCC#Cc1cnc2c(c1)C(=O)N([C@@H](C)CO)C[C@H](C)[C@H](CN(C)C)O2,i
COc1ccccc1-c1cnc2c(c1)C(=O)N([C@@H](C)CO)C[C@H](C)[C@H](CN(C)Cc1cncnc1)O2,i
O=C(C[C@H]1CC[C@@H](NC(=O)C2CCC2)[C@H](CO)O1)NCC1CC1,i
COc1nnc(-c2ccc(N3CCOCC3)c(NC(=O)COc3cccc(C)c3)c2)c2ccccc12,i
O=C(COc1ccc(I)cc1)Nc1cccc(-c2nnc(-c3ccco3)o2)c1,i
COc1cc(NC(=O)CSc2nnnn2-c2ccccc2)cc(OC)c1OC,i
C[C@H](O)C#Cc1cnc2c(c1)C(=O)N([C@H](C)CO)C[C@@H](C)[C@H](CN(C)CC1CCCC1)O2,i
O=C(COc1ccccc1[N+](=O)[O-])Nc1ccc2oc(-c3cc(Br)ccc3Cl)nc2c1,i
C[C@@H]1CN([C@@H](C)CO)S(=O)(=O)c2ccc(-c3ccccc3F)cc2O[C@@H]1CN(C)S(C)(=O)=O,i
COC(=O)c1cnn(-c2ccccc2)c1C=Nc1ccc(C)cc1,i
CC(C)CC#Cc1ccc2c(c1)O[C@H](CN(C)S(=O)(=O)c1ccc(F)cc1)[C@H](C)CN([C@H](C)CO)S2(=O)=O,i
Cc1cc(C(F)(F)F)nc(SCC(=O)Nc2cc(C(F)(F)F)ccc2Cl)n1,i
CCCN(C)C[C@@H]1OCc2cnnn2CCCC(=O)N([C@H](C)CO)C[C@H]1C,i
C[C@H]1CN([C@@H](C)CO)C(=O)c2cc(C#CC3(O)CCCC3)cnc2O[C@H]1CN(C)C(=O)Cc1ccccc1,i
O=C(CCc1ccc(O)cc1)CC(CCc1ccc(O)cc1)O[C@@H]1O[C@H](CO)[C@@H](O)[C@H](O)[C@H]1O (some centres not stated),i
C[C@H](CO)N1C[C@H](C)[C@@H](CN(C)C(=O)C2CC2)Oc2ncc(/C=C/c3ccccc3)cc2C1=O,i
C[C@H]1CN([C@@H](C)CO)C(=O)c2cc(/C=C/c3ccccc3)cnc2O[C@H]1CN(C)Cc1ccncc1,i

# Five entries from above, bar-delimited.
mol | ID4 SMM
O=C(C[C@H]1CC[C@@H](NC(=O)C2CCC2)[C@H](CO)O1)NCC1CC1 | i
COc1nnc(-c2ccc(N3CCOCC3)c(NC(=O)COc3cccc(C)c3)c2)c2ccccc12 | i
O=C(COc1ccc(I)cc1)Nc1cccc(-c2nnc(-c3ccco3)o2)c1 | i
COc1cc(NC(=O)CSc2nnnn2-c2ccccc2)cc(OC)c1OC | i
C[C@H](O)C#Cc1cnc2c(c1)C(=O)N([C@H](C)CO)C[C@@H](C)[C@H](CN(C)CC1CCCC1)O2 | i

# Continued:
SMILES,ID4 SMM
N#CC1=C(N)N(c2ccccc2)NC1(C(F)(F)F)C(F)(F)F,i
CCCC#Cc1ccc2c(c1)O[C@H](CN(C)S(=O)(=O)c1cccc(OC)c1)[C@H](C)CN([C@@H](C)CO)S2(=O)=O,i
CCCN(C)C[C@H]1Oc2ncc(-c3cccc(C#N)c3)cc2C(=O)N([C@@H](C)CO)C[C@@H]1C,i
COc1ccc(C(=O)NCC(=O)Nc2ccc(F)cc2)cc1OC,i
Cc1cc(S(=O)(=O)NCCC(=O)O)ccc1F,i
COC(=O)Cc1c(C)nc2nc(-c3ccccc3)[nH]n2c1=O,i
CCC(=O)N(C)C[C@H]1Oc2ncc(C#CCc3ccccc3)cc2C(=O)N([C@H](C)CO)C[C@H]1C,i
COc1cc([N+](=O)[O-])ccc1NC(=O)c1ccccc1OCC(=O)NC(C)(C)C,i
O=C(C[C@H]1C=C[C@@H](NC(=O)Cc2ccccn2)[C@H](CO)O1)NCCCN1CCOCC1,i
CCn1c(SCC(=O)c2ccc(OC)cc2)nnc1-c1ccc(C)cc1,i
CCn1c(SCC(=O)O)nnc1-c1c[nH]c2ccccc12,i
O=C1C(=O)N(CCCn2ccnc2)C(c2cccs2)C1C(=O)c1cc2ccccc2o1 (configuration not stated),i
C[C@H]1CN([C@@H](C)CO)C(=O)c2cc(C#CC3CCCCC3)cnc2O[C@@H]1CN(C)Cc1ccncc1,i
O=C(NCc1ccco1)c1cccc(NC(=O)c2ccc(Br)cc2)c1,i
CCCOc1ccc(/C(=N\O)C(C)(C)NO)cc1,i
CCCc1ccc(-c2cc(C(=O)NCc3cnn(C)c3)c3ccccc3n2)cc1,i
CN(C)c1ccc2c(c1)[C@H]1C[C@H](CC(=O)NCc3ccccc3)O[C@@H](CO)[C@H]1O2,i
Cn1c(SCC(=O)c2ccc([N+](=O)[O-])cc2)nnc1-c1cc2ccccc2cc1O,i
C[C@H](CO)N1C[C@H](C)[C@@H](CN(C)C)Oc2cc(C#Cc3ccc(F)cc3)ccc2S1(=O)=O,i
C[C@H](CO)N1C[C@H](C)[C@@H](CN(C)Cc2cccnc2)Oc2ncc(C3=CCCC3)cc2C1=O,i
Cc1ccc(C(=O)O)cc1S(=O)(=O)N(C)CCO,i
CC(NS(=O)(=O)c1ccc(Br)cc1)C(=O)Nc1cccc(C(F)(F)F)c1 (configuration not stated),i
Cc1ccc(-c2nn(C)c(=O)c3ccccc23)cc1S(=O)(=O)NCCN1CCOCC1,i
C[C@@H]1CN([C@@H](C)CO)S(=O)(=O)c2ccc(C#CC3CC3)cc2O[C@@H]1CN(C)C(=O)c1ccccn1,i
O=C1c2ccccc2C(=O)N1CCCc1nc(-c2cccnc2)no1,i
CCOc1ccc(NC(=O)Cn2c(=O)n(-c3ccc(Cl)cc3)c(=O)c3c4c(sc32)CCC4)cc1,i
O=C(CSc1nnnn1-c1ccccc1)Nc1cccc(I)c1,i
CO[C@@H]1CN(C)C(=O)c2cc(NC(=O)C3CC3)ccc2OC[C@@H](C)N(CC2CC2)C[C@H]1C,i
O=C1CCC(C(=O)Nc2cc(F)cc(F)c2)=NN1,i
O=C(C[C@H]1C=C[C@H](NC(=O)c2ccncc2)[C@@H](CO)O1)NCCc1ccncc1,i
C[C@@H]1CN([C@H](C)CO)S(=O)(=O)c2ccc(-c3ccc(C#N)cc3)cc2O[C@@H]1CN(C)C(=O)C1CC1,i
O=C(CSc1nc(-c2ccccc2)cc(C(F)(F)F)n1)Nc1ccccc1Cl,i
CCS(=O)(=O)N[C@@H]1CC[C@H](CC(=O)NC2Cc3ccccc3C2)O[C@H]1CO,i
Cc1cc(O)c(C)c2c1Oc1c(C)c(O)cc(C)c1C(=O)O2,i
CCn1c(SCC(=O)Nc2ccccc2C(F)(F)F)nnc1-c1cccc([N+](=O)[O-])c1,i
C[C@@H]1CN([C@@H](C)CO)S(=O)(=O)c2ccc(-c3ccccc3)cc2O[C@H]1CN(C)Cc1ccccc1,i
CC(=O)Nc1nccc(-c2cc(-c3cccc(C(F)(F)F)c3)no2)n1,i
COc1cc2c(cc1NC(=O)CCOc1ccc(C)cc1)oc1ccccc12,i
COc1ccc(C(=O)CSc2n[nH]c(-c3ccccc3)n2)cc1[N+](=O)[O-],i
c1ccc2[nH]c(CSc3ncnc4sc5c(c34)CCCC5)nc2c1,i
COc1ccc(S(=O)(=O)N(CC(=O)O)c2ccc(F)cc2)cc1,i
Cc1ccc(O)c(NC(=O)CN(C)S(=O)(=O)c2ccc(Cl)cc2)c1,i
COc1cccc(NC(=O)N(C)C[C@@H]2Oc3ncc(/C=C/c4ccccc4)cc3C(=O)N([C@H](C)CO)C[C@@H]2C)c1,+
C[C@H]1CN([C@@H](C)CO)C(=O)c2cc(C#CC3CCCCC3)cnc2O[C@H]1CN(C)CC1CC1,i
Cc1ccc(-c2nn(-c3ccc(C)cc3)c3c2cnc2c(F)cccc23)cc1,i
COc1cc(OC)c(NC(=O)CSc2nnnn2-c2ccccc2)cc1Cl,i
COc1cccc(S(=O)(=O)Nc2ccc3c(c2)[C@@H]2C[C@H](CC(=O)NCc4ccc(Cl)cc4)O[C@@H](CO)[C@@H]2O3)c1,i
Cc1ccc(-c2ccc3c(c2)O[C@H](CN(C)Cc2cncnc2)[C@H](C)CN([C@H](C)CO)S3(=O)=O)cc1,i
COc1ccccc1-c1nnc(SCC(=O)c2ccc(NC(C)=O)cc2)o1,i
COC(=O)Nc1ccc2c(c1)N(C(=O)CCN1CCOCC1)c1ccccc1CC2,i
O=C(NCC[C@@H]1CC[C@H](NC(=O)C2CCC2)[C@H](CO)O1)c1cc(Cl)cc(Cl)c1,i
Cc1ccc([N+](=O)[O-])c(OCCCCn2cncn2)c1,i
COc1cccc2cc(C(=O)Nc3sc4c(c3C(N)=O)CCCCC4)c(=O)oc12,i
CC(=O)N(C)C[C@H]1Oc2ncc(C#Cc3ccccc3)cc2C(=O)N([C@H](C)CO)C[C@@H]1C,i
COc1ccc(CN2C(=O)C(O)(CC(=O)c3ccc(Cl)cc3)c3ccccc32)cc1OC (configuration not stated),i
Cc1ccc2nc(-c3cccnc3)cc(C(=O)Nc3sc(C)c(C)c3C(N)=O)c2c1,i
CC(C)CC#Cc1cnc2c(c1)C(=O)N([C@@H](C)CO)C[C@H](C)[C@@H](CN(C)Cc1ccc(F)cc1)O2,i
CN(CC(=O)Nc1ccc(F)c(Cl)c1)S(=O)(=O)c1ccc2ccccc2c1,i
CC(C)NC(=O)N1[C@H](CO)[C@H](c2ccc(-c3ccc(F)cc3)cc2)[C@@H]1C#N,i
O=C1O[C@H](c2ccccc2)[C@H](c2ccccc2)N2[C@H]1[C@@H](C(=O)N1CCCCCCC1)[C@]1(C(=O)Nc3ccc(C#CCCO)cc31)[C@H]2c1ccc(O)cc1,i

# Continuation.
SMILES,ID4 SMM
CCN(CC(=O)Nc1ccc(C(F)(F)F)cc1)S(=O)(=O)c1ccc(C)cc1,i
Cc1ccc(-n2nnnc2SCC(=O)Nc2ccc(N3CCOCC3)c(Cl)c2)cc1C,i
CC(C)c1nnc(N2C(=O)c3oc4ccccc4c(=O)c3C2c2ccco2)s1 (configuration not stated),i
C[C@H]1CN([C@@H](C)CO)C(=O)c2cc(C#CCN(C)C)cnc2O[C@H]1CN(C)C(=O)c1cccc(F)c1,i
C[C@H](CO)N1C[C@H](C)[C@H](CN(C)CC2CCCC2)Oc2ncc(C#Cc3ccccn3)cc2C1=O,i
CCCCn1cc(SCC(=O)O)c2ccccc21,i
O=C(C[C@H]1C[C@H]2c3cc(NC(=O)CC4CC4)ccc3O[C@H]2[C@@H](CO)O1)NCc1ccccc1F,i
Cc1ccnc(NS(=O)(=O)c2ccc(NC(=O)c3cccs3)cc2)n1,i
CC(C)n1c(C(F)(F)F)nc2cc(C(=O)N3CCOCC3)ccc21,i
NC(=O)NCC#Cc1ccc2c(c1)[C@]1(C(=O)N2)[C@H](C(=O)O)[C@H]2C(=O)O[C@H](c3ccccc3)[C@H](c3ccccc3)N2[C@@H]1c1ccccc1OCCO,i
C[C@@H]1CN([C@@H](C)CO)C(=O)Cc2cc(N(C)C)ccc2O[C@H]1CN(C)CC1CC1,i
Clc1ccc2c(c1)N=C(N1CCNCC1)c1ccccc1N2,i

# The list is partial. The share of hits here may be higher or lower than overall.
